# Source: PubChem BioAssay
# Menin-MLL FL inh – menin-MLL binding inhibition, fluorescein peptide; FP activity change, % at 61.4 µM; 290,000 tested, under 10 active; Fluorescence polarization, fluorescein-MLL peptide displacement from menin; inconclusive = falling polarisation curve, or a change in total fluorescence; inactive = total fluorescence flat and polarisation flat or rising; no compound was filed as active; the % refers to the polarisation; negative = inhibition;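 also: % of control where 0% means no effect; inhibitors lower the polarisation; unlabelled MLL peptide was the positive control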
# Sfp inh – Sfp phosphopantetheinyl transferase inhibition; Biochemical Sfp PPTase activity, qHTS; 3.5% of 310,000 active; Potency, µM, inactives show max response, negative = inhibition, hits mostly inhibitors; Q9F4F7; AID 1490; active = well fitted inhibition curve with a large enough effect; inconclusive = small, poorly fitted or top-dose-only effect, or another doubt; inactive = no such curve, though single readings can be large or run the other way;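 also: the enzyme is Sfp with the accession as filed and its product quenches rhodamine fluorescence; potency is read from the fitted curve at half-maximal effect; 0% = enzyme reaction without inhibitor and -100% = no enzyme wells; top concentration of the series not given in the record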
#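 Buffer: 50 mM Hepes-Na pH 7.6, 10 mM MgCl2, 0.01% Nonidet P-40, 0.01% BSA. Enzyme 15 nM, pre-exposed to compound 15 min; substrates then added and fluorescence change tracked over 30 min.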
# TRPML1 agonist – activates the human TRPML1 channel. Q9GZU1. TRPML1-expressing cells, Ca2+ dye fluorescence, FDSS; host cell line not named in the record; reference of the full effect not given here. activation, % (no concentration beside the values). 0.12% of 410,000 active. AID 624414; in the data active = activation above about 50%; inconclusive = about 30% to 50%; inactive = below about 30%; also: 0% is about no effect; the text of the record puts the active cut at 80%
#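 Kinetic FDSS Ca2+ read in Tet-induced TRPML1-DL cells (ABD Ca8 dye plus quencher, 45-90 min RT loading): baseline, then compound, then 110 s agonist window; EC80 agonist 54-4 at 4uM final added afterwards for a 110 s antagonist window.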
# ClpP mod – qHTS Assay for Activators of ClpP; ATP-dependent Clp protease proteolytic subunit (Bacillus subtilis (strain 168)), P80244; purified B. subtilis ClpP, FRET peptide cleavage, 20 min; Potency, µM (doses to about 57.5 µM), for the others: top-dose activity change, negative = active; 1.9% of 340,000 active; AID 651965, 2013; active = well fitted falling curve with a large enough effect; inconclusive = small, poorly fitted or top-dose-only effect; inactive = no such curve, though single readings can be large or run the other way; also: potency is read from the fitted curve at half-maximal effect; the source files actives as falling curves though it sought activators and does not explain the sign; nearly all actives have a fitted effect of over 65% in size; many hits overshoot -100%
# Target sequence (P80244 whole entry, looked up): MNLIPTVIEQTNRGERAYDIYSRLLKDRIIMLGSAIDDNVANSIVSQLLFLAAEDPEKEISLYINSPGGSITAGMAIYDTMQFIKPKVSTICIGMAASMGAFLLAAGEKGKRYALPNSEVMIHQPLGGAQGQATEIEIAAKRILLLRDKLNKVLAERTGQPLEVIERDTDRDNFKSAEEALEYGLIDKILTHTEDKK
#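 ClpP 10 microg/mL final, pH 8 Tris/KCl buffer with BSA, glycerol, Tween-20; compound pinned in; FRET-FV substrate; RT 20 min; Ex320/Em430; ΔFRET vs ADEP 5.8 microM, DMSO, no enzyme.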
# TRPV1 PAM – enhances activation of the human vanilloid receptor TRPV1 | 0.02% of 320,000 active | Q8NER1 | TRPV1-expressing cells, Fluo-8 calcium influx, capsaicin EC20 potentiation; host cell line not named in the record; control for the full effect not named in the record | potentiation, % at 8.33 µM; active means potentiation above 80%; inconclusive means 30% to 80%; inactive means below 30%; also: 0% is about no effect
# Target sequence (Q8NER1 whole entry, looked up): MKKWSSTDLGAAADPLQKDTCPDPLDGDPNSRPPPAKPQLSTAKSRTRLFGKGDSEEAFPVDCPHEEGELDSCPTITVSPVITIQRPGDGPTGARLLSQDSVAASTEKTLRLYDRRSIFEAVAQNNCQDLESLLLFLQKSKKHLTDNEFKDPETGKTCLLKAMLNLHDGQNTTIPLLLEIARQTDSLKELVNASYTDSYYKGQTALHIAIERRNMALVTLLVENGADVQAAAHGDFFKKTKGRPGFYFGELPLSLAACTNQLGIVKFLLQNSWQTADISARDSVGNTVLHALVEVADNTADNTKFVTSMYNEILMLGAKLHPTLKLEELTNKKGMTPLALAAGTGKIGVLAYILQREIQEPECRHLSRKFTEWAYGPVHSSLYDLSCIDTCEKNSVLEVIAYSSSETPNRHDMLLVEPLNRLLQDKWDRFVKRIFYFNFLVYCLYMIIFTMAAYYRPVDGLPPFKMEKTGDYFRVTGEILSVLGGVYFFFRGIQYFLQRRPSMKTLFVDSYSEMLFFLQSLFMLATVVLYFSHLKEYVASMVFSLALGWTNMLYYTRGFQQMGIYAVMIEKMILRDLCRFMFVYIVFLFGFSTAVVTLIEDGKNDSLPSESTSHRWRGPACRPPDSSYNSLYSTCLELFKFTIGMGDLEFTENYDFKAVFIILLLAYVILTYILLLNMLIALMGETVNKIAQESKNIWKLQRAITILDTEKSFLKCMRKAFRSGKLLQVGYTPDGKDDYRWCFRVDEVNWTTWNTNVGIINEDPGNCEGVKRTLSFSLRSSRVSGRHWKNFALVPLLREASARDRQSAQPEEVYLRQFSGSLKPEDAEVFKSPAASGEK
#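 Cells expressing TRPV1 were dye-loaded with Fluo-8 and read kinetically: 10 s baseline, 3 min after compound (agonist portion), then 2 min after EC20 capsaicin (allosteric enhancer portion). Calcium-bound dye fluorescence at 480/520 nm.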
# TRPML1 inh – human mucolipin-1 channel inhibition | Q9GZU1 | activity change, negative = inhibition, % (concentration not given with the values) | TRPML1-inducible cells, Ca2+ dye fluorescence, FDSS; hits give low values; inhibition of EC80 agonist-evoked calcium signal | 0.02% of 390,000 active; in the data active means activity change below about -50%; inconclusive means about -30% to -50%; inactive means above about -30%;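 also: stimulus is agonist 54-4 at its EC80 concentration; % is scaled to controls: 0 for no effect and ±100 for the full control effect; compound concentration not given in the record; the text of the record puts the active cut at -80%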
#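 Calcium fluorescence in TRPML1-DL cells induced overnight with Tet: a 110 s read after compound pin addition, then a 110 s antagonist read after challenge with 54-4 at 4 uM final (EC80).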
# PINK1 expr mod – modulators of PINK1 expression | PINK1 immunofluorescence, high-content cytometry, 24 h | Potency, µM (series often up to 76.6 µM), for the others: at the top dose activation (PINK1 increase), actives largely listed as activators | 0.2% of 410,000 active; active = well fitted activation curve with a large enough effect; inconclusive = small, poorly fitted or top-dose-only effect; inactive = flat fitted curve, though single readings scatter; cell line not stated here;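 also: potency is read from the fitted curve at half-maximal effect; % of control where 0% means no effect; nearly all actives have a fitted effect of over 65% in size; a mitochondrial uncoupler was the plate control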
#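 Fluorescence from anti-PINK1 antibody, together with nuclear and cell stains, was scanned on a laser-scanning cytometer. Before staining, stable-line cells were incubated 24 hours with compounds at 5 concentrations; primary antibody 12 h at 10 degrees C.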
# * hit, by the source's call; ? = inconclusive; / = no result given; & = joins results of further samples; [ ] = remark or other dose. An unsorted share of the library. About 4.4% of those tested had a hit in this group.
Structure,Menin-MLL FL inh,Sfp inh,TRPML1 agonist,ClpP mod,TRPV1 PAM,TRPML1 inh,PINK1 expr mod
Cc1ccc(CSc2nnc(-c3ccncc3)n2N)cc1,4.5,?,-0.4,0.7%,-21,-6,3.1%
Cc1ccc(C(=O)Oc2ccccc2N2C(=O)C3C4CCC(C4)C3C2=O)cc1 (stereo not drawn),1.5,8%,0.7,-1.6%,-12,-11,-0.7%
COCCNC(=S)N1CCN(c2ccc(Cl)cc2)CC1,0.5,4%,-0.5,-1.2%,-12,1,-0.3%
Cn1c(SC2CCCCC2=O)nnc1-c1ccncc1 (stereo not drawn),20,7%,0.6,-2.1%,3,28,-4.2%[38.3 µM]
CC(C)Cn1cc(C(=O)NCCCN2CCCC2=O)c2c3ccccc3n(C)c2c1=O,-1.7,7%,1.8,16µM*,-1,10,-2.2%[38.3 µM]
C=CCOc1ccc(CNCC2CCCO2)cc1 (stereo not drawn),-4.7,1%,-0.4,/,-1,4,0.8%
CCCCn1c(=N)n(CC(O)COc2ccc(C)cc2)c2ccccc21 (stereo not drawn),-1.1,0%,-0.4,0.4%,13,-3,/
Cc1ccc(SC(C)c2nc(-c3cccnc3)no2)cc1 (stereo not drawn),1.9,?,3.1,-2.4%,10,-15,0.9%
C[C@@H]1CCCCO[C@@H](CN(C)C(=O)CCCN(C)C)[C@@H](C)CN([C@H](C)CO)C(=O)c2cc(NC(=O)CCC(F)(F)F)ccc2O1,/,/,1.0,-4.6%,/,9,0.8%
Cc1cc(/C=C2\SC(=S)NC2=O)c(C)n1-c1ccccc1,?,-26%,3.3,/,/,6,-1.1%
O=C(NCc1cccc(C(F)(F)F)c1)c1csc(COCCO)n1,/,/,0.7,-0.5%,/,0,0.0%
CC[C@H](C)Cc1cn([C@@H](CCCCN)C(=O)NCCCCCCCCCCC(=O)N2CCNCC2)nn1,/,/,0.1,-0.9%,?,18,0.0%
CC(=O)N1N=C(c2cccs2)CC1c1ccc(C)o1 (stereo not drawn),-4.7,14%,4.1,/,-9,-3,1.2%
Cn1nnc(NC(=S)NC(=O)/C=C/c2ccco2)n1,7.3,?,0.8,/,-30,11,-0.8%
CNC(=O)/C=C/c1cccc(C(F)(F)F)c1,0.7,6%,0.6,-1.0%,-17,-17,1.0%
O=C(Nc1nnc(SCC(=O)N2CCCCC2)s1)c1ccccc1F,-11,5%,-0.1,/,?,7,-1.6%
Cc1cccc(NC(=O)CN2C(=O)CCSc3ccc(S(=O)(=O)N4CCOCC4)cc32)c1C,2.6,22%,1.0,-1.9%,-2,-1,-0.3%
CCC(C)(C(=O)Nc1ccc(OC)cc1)N(C)C(=O)Cn1nnnc1N (stereo not drawn),0.1,14%,0.4,/,15,-8,1.5%
Cn1c(Cn2c(=O)sc3ccccc32)nnc1SCC(=O)NCc1ccccc1Cl,2.2,8%,0.6,-4.4%,2,5,-0.1%
O=C1CCc2cc(S(=O)(=O)N3CCCC3C(=O)NC3CCCCCCC3)ccc2N1 (stereo not drawn),0.8,19%,-0.4,0.6%,?,-3,2.5%
O=C(COC(=O)c1ccccc1NC(=O)C1CC1)c1ccc2c(c1)OCCO2,-2.7,-11%,/,/,-6,/,/
Cc1ccc(-c2nnn(CC(=O)NC3CC4CCC3C4)n2)cc1 (stereo not drawn),3.8,4%,-1.2,-1.6%,-13,-2,1.6%
O=C(CNC(=O)c1ccco1)N/N=C/c1cc(Br)ccc1O,-1.2,12%,0.2,/,6,0,2.7%
Cc1ccc(Cc2c(-c3ccc(F)cc3)nc3c(C)cc(Br)cn23)cc1,/,/,0.4,-2.2%,/,21,5.6%
Cc1c(C(=O)NCc2cccc(C(F)(F)F)c2)sc(=O)n1Cc1ccc(C(=O)N(C)C)cc1,/,/,-1.0,-2.3%,/,/,-0.3%
COc1ccc([C@@H]2C[C@H]3[C@@H](CN2S(=O)(=O)c2ccccc2)C(=O)C[C@@H](c2ccc(C)cc2)N3S(=O)(=O)c2ccc(C)cc2)cc1,/,/,2.5,-0.6%,/,16,0.7%
COc1cccc(C(=O)N2CCN=C2SCc2cccnc2)c1OC,-0.4,17%,-0.4,0.6%,7,11,1.7%
CCOc1ccc(C(C)=O)cc1CN1c2ccc(S(N)(=O)=O)cc2CC1C (stereo not drawn),6.8,11%,1.4,-1.7%,15,-14,-0.7%
O=C(O)c1cc(/C=C/c2ccc(N3CCOCC3)c([N+](=O)[O-])c2)nc2ccccc12,2.4,16%,0.2,-3.3%,5,-5,-0.8%
O=C(N/C(=C\c1ccc(-c2ccccc2)o1)C(=O)N1CCOCC1)c1ccccc1,-0.3,-2%,-0.8,/,-3,-7,1.2%
Cc1ccc(CN(C)CC(=O)NC(C)c2ccccc2)cc1 (stereo not drawn),-6.3,-5%,0.4,/,7,-3,2.1%
O=C(NCCSc1c[nH]c2ccccc12)c1ccc2c(c1)OCO2,0.4,12%,-0.1,1.9%,-10,-1,-0.2%
O=C(Cn1nnc(-c2cccc(C(F)(F)F)c2)n1)NC(=O)NCc1ccco1,0.0,-9%,-1.2,-0.7%,8,42,6.8%
COc1ccc(-c2noc(-c3ccc(Br)o3)n2)cc1,0.9,9%,-0.3,0.1%,-9,0,4.5%
Fc1cccc(Cl)c1CSc1ccc2nnc(-c3ccccn3)n2n1,-6.0,14%,0.8,/,-3,7,1.3%
CCn1c2ccccc2c2nnc(SCCN3CCCCC3)nc21,-0.9,9%,0.2&-0.4,1.5%&-0.2%,0,-8&2,-1.3%&2.0%
Cc1cccc(-c2noc(CN(C(=O)c3ccccc3Cl)C(C)C)n2)c1,/,/,0.2,0.7%,/,76,4.4%
COc1ccc(-c2nc(CN3CCN(C(=O)c4ccco4)CC3)c(C)o2)c(F)c1,5.7,6%,0.0,-2.7%,-11,9,2.8%
COC(=O)c1ccccc1NC(=O)c1cccc(NC(=O)C(C)C)c1,-2.3,14%,1.4,-1.5%,-9,-8,15%
CCOC(CCNC(=O)c1cn(-c2cccc(C)n2)cn1)OCC,4.6,8%,-0.2,-1.6%,16,0,1.0%
Cc1ccc(C(=O)C2=C(O)C(=O)N(Cc3cccnc3)C2c2ccc(Cl)cc2)o1 (stereo not drawn),-1.5,-11%,1.6,/,12,6,1.8%
CCOC(=O)C1=C(C)N=C2c3ccccc3C(=O)C2C1c1ccc(Cl)cc1 (stereo not drawn),1.3,20%,-0.5,-1.1%,-4,-2,14%[38.3 µM]
COc1cnc(SCc2ccc(Cl)cc2)nc1Cl,0.8,-5%,2.3,0.0%,9,20,0.2%[38.3 µM]
Cc1oc2ncn(CC(C)C)c(=O)c2c1C(=O)Nc1cccc(C(F)(F)F)c1,/,/,-0.7,1.5%,/,-29,1.1%
CCc1ccc(C(C)NC(=O)c2ccncc2)cc1 (stereo not drawn),5.7,-3%,-0.6,/,3,-12,-0.7%
Nc1nc(SCC(=O)Nc2cccc(C(F)(F)F)c2)n[nH]1,/,/,-0.3,-2.0%,/,11,1.9%
CN(C)c1cc(-c2ccccc2)nc(N)n1,-0.5,2%,-0.4,-10%,0,-9,10%
O=c1c2ccccc2[nH]c(=S)n1CCN1CCCCC1,0.4,-4%,-0.3,-0.7%,-13,-19,0.7%
O=C1CN(C(=O)C2CCC(=O)N(CCc3ccc(Cl)cc3)C2)CCN1 (stereo not drawn),/,15%,-0.2,-2.9%,-4,-13,3.5%
Cc1ccc(CNC(=O)[C@H](C)NC(=O)C2CCN(C(=O)[C@@H]3CCCN3C(=O)OC(C)(C)C)CC2)cc1,0.0,20%,/,-0.1%,9,/,-1.1%
COc1cccc(N2CCN(C(=O)CCn3c(=S)[nH]c4cc5c(cc4c3=O)OCO5)CC2)c1,2.2,11%,/,/,5,/,/
COc1ccc(C2/C(=C(\O)c3cccc(OC)c3)C(=O)C(=O)N2c2ccccn2)cc1 (stereo not drawn),4.2,-2%,-0.8,1.6%,4,-2,-5.6%[38.3 µM]
Cc1ccn2c(-c3n[nH]c(=S)n3Cc3ccccc3)c(C)nc2c1,-1.6,-22%,1.4,-4.1%,-1,24,8.1%
COc1cc(C(=O)OCC(=O)Nc2cc(C)on2)c([N+](=O)[O-])cc1OC,-6.3,-1%,-1.0,/,-8,-9,2.5%
COc1cccc(-c2cc(C(=O)NCc3cccs3)no2)c1,-0.3,6%,0.5,/,-28,18,13%
Cc1cc(Br)c(S(=O)(=O)n2nnc3ccccc32)cc1C,2.8,-34%,-0.1,0.5%,?,-12,3.1%[38.3 µM]
CSc1ncccc1C(=O)Nc1ccc2c(c1)OCO2,/,/,-0.5,1.4%,8,-4,-0.3%
CN1CCN(c2ccc(S(=O)(=O)N3CCOCC3)cc2NC(=O)CC(C)(C)C)CC1,/,/,-0.5,-7.1%,14,-7,0.5%
Cc1nc2ccc3nc(NC(=O)c4ccc(S(=O)(=O)N5CCOCC5)cc4)sc3c2s1,-1.6,8%,-0.4,-13%,-8,0,22%[38.3 µM]

# Single records, as listed above.
# Shown for `O=C1CN(C(=O)C2CCC(=O)N(CCc3ccc(Cl)cc3)C2)CCN1` (stereo not drawn) = Menin-MLL FL inh: /; Sfp inh: 15%; TRPML1 agonist: -0.2; ClpP mod: -2.9%; TRPV1 PAM: -4; TRPML1 inh: -13; PINK1 expr mod: 3.5%
# Shown for `COc1cc(C(=O)OCC(=O)Nc2cc(C)on2)c([N+](=O)[O-])cc1OC` = Menin-MLL FL inh: -6.3; Sfp inh: -1%; TRPML1 agonist: -1.0; ClpP mod: /; TRPV1 PAM: -8; TRPML1 inh: -9; PINK1 expr mod: 2.5%
